INS promoter inh – TRM-6 insulin promoter activity inhibition. inhibition, % at 2 µM. AID 1273. TRM-6 cells (human fetal islet line), insulin promoter-eGFP reporter, imaging; reporter expression induced with tamoxifen. actives 0.9% (n = 130,000);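 active means inhibition above the mean plus 3 SD, with well images judged a real hit on visual review, cut at about 60% in these data, passing the limit was not always enough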
RGS16-Gao – regulators of human RGS16-Galphao interaction | O15492+P09471 | bead-based flow cytometry RGS16-Galphao binding, fluorescence; actives lie on both sides | binding response (% of control), % at 10 µM | actives 0.38% (n = 220,000) | AID 1441;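 active means below 25% or above 175%, edge rows of some plates excepted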;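 further: Galphao activated by GDP with aluminum fluoride before binding; 100% = wells without compound and 0% = beads without RGS; some results beyond the cut were filed as inactive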
Target sequence (O15492 whole entry, looked up): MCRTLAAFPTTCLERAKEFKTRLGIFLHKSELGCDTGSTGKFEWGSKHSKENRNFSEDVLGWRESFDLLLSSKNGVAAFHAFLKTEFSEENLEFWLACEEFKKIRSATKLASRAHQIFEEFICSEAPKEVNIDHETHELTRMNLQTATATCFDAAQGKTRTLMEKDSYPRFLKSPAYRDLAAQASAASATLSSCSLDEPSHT
Target sequence (P09471 whole entry, looked up): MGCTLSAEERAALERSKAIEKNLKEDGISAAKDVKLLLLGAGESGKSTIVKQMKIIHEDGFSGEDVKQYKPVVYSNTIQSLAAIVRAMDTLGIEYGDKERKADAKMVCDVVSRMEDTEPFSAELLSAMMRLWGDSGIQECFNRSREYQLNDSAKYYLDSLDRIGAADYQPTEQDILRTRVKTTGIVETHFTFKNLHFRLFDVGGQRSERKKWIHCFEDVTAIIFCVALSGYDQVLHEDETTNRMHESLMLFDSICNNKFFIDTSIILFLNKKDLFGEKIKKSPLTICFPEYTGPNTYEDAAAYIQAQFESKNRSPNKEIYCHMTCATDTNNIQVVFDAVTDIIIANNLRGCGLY
PKD1 inh – PKD1 (human) kinase inhibition | AID 797 | inhibition, %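 (about 10 µM by stock and volumes)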 | Q15139 | actives 0.056% (n = 200,000) | PKD1 kinase fluorescence polarization assay;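 active means inhibition of 50% or more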;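 further: controls were vehicle for no effect and a reference inhibitor for full effect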
GALR2 agonist – activates the human galanin receptor 2; O43603; GALR2-expressing cells, agonist activation read-out; activation, %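 (tested at 5 µM)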; actives 0.48% (n = 140,000); AID 803;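 active means above mean plus 3 SD of all compounds, about 5% in these data, not always enough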;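 further: 0% = vehicle buffer wells and 100% = reference agonist at full effect; tested in CHO reporter cells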
Target sequence (O43603 whole entry, looked up): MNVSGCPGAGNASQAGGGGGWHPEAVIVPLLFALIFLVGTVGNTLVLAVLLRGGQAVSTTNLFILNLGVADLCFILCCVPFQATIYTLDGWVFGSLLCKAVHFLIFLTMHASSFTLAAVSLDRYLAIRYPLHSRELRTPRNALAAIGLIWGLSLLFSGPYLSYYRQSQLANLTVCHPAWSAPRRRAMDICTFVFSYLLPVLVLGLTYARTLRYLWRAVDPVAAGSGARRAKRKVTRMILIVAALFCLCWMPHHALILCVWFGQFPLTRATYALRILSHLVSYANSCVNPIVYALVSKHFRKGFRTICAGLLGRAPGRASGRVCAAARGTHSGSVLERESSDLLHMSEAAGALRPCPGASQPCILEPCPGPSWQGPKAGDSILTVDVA
HSV replic up – increases HSV replication in cells | actives 0.005% (n = 220,000) | AID 1956 | maximum fold increase | HSV replication augmentation in cells, fold increase;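 active means peak rise of 1.5-fold or more in the series; tested in PC3 cells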;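 further: first round at 10 µM; read as green reporter fluorescence; hits show the peak of a series up to 25 µM; 1 = signal of infected wells without compound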
INS promoter inh cell count – second read-out of INS promoter inh, no call of its own (marks repeat the call); normalized cell count, %; measured here: cell count, toxicity; reference of the scale not given here;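 cells exposed to compound for 48 h; stained nuclei by imaging scaled within each plate; lower means fewer cells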
HSV replic up primary fold – further read-out of HSV replic up, marked with its call; fold increase; compound at 10 µM; measured here: primary screen fold increase 10 uM; tested in PC3 cells;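 GFP signal in the first replicate; 1 = infected wells without compound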
An asterisk follows results filed as active; i = inactive; / = no result given.

no.	Molecule	HSV replic up primary fold	HSV replic up	PKD1 inh	GALR2 agonist	INS promoter inh	INS promoter inh cell count	RGS16-Gao
1	CCC(C)(C)n1nnnc1C(C(C)C)N(CCN1CCOCC1)Cc1cc2cccc(C)c2[nH]c1=O (centres undefined)	0.93	i	7	0.1	-40	94	106
2	CC1CCCCN1C(=O)CN1C(=O)CN(C)C(=O)c2ccccc21 (centres undefined)	0.97	i	-8	-1.2	33	127	107
3	COc1ccc2c(CC(=O)NCCN3C(=O)S/C(=C\c4cccnc4)C3=O)coc2c1	1.1	i	7	/	-3	175	105
4	CC1=C(C(=O)Nc2ccc(Br)cc2)C(c2ccco2)NC(=O)N1 (centres undefined)	0.87	i	-3	2.2	68*	44*	154
5	Cc1cc(C)c(OCCOCCN2CCNCC2)c(C)c1	0.88	i	2	-1.3	43	107	103
6	O=C1OC(=O)C2C1[C@@H]1CC[C@H]2O1 (some centres undefined)	0.62	i	-2	-1.4	-36	33	116
7	CC(=O)Nc1cn(-c2ccccc2)nc1-c1ccccc1	0.91	i	6	/	6	212	105
8	COc1nc(NCCN2CCOCC2)nc(Nc2ccc([N+](=O)[O-])cc2)n1	0.94	i	5	0.4	-39	76	132
9	O=C1/C(=C/c2ccc(F)cc2)Oc2cc(OC(=O)N3CCOCC3)ccc21	1	i	/	/	/	/	99
10	Cc1nc(SCC(=O)N2CCc3ccccc32)n[nH]1	0.96	i	-1	-2.1	-4	68	97
11	CSC1=N/C(=C\c2ccccc2F)C(=O)S1	/	/	-7	-0.5	/	/	110
12	Cc1ccc(NC(=O)C(C)N=C2NS(=O)(=O)c3ccccc32)cc1 (centres undefined)	1.1	i	-1	/	0	68	81
13	Cn1cc(CNCc2cnc3ccccn23)c(-c2ccc(Oc3ccccc3)cc2)n1	1.1	i	-1	/	-48	112	111
14	Cc1cc(C)nc(N/N=C/c2ccccc2OCc2ccccc2)n1	1.2	i	-3	-0.3	-31	78	93
15	O=C(NC(Nc1nc2ccc([N+](=O)[O-])cc2s1)(C(F)(F)F)C(F)(F)F)c1ccccc1Cl	0.78	i	-5	-2.5	/	/	91
16	CCN1CCN(CCNC(=O)c2ccc(CS(=O)(=O)c3ccccc3C)o2)CC1	1.1	i	0	-1.1	-3	76	176
17	CC(C)(C)NS(=O)(=O)c1ccc(OCC(=O)NCCC2=CCCCC2)cc1	0.84	i	-3	-2.7	-16	57	209
18	O=C(O)CCc1ccc(-c2cccs2)n1CCc1ccccc1	0.9	i	-6	/	/	/	104
19	COc1ccc(-c2nnc3ccc(SCC(=O)Nc4cc(C)on4)nn23)cc1	0.93	i	5	/	6	176	100
20	O=C(NCc1ccc(F)cc1)C1CCN(S(=O)(=O)N2CCC3(CC2)OCCO3)CC1	1	i	0	0.9	-50	107	102
21	Cc1ccc(Nc2ncnc3c2oc2ccccc23)cc1	/	/	13	-0.4	48	124	88
22	COc1ccccc1C(=O)NNC(=S)NC(=O)c1cc(OC)c(OC)c(OC)c1	0.94	i	4	/	0	41	104
23	Cc1cccc(C)c1NCc1n[nH]c(=S)n1-c1ccccc1	0.84	i	0	/	/	/	100
24	O=C(CSc1ncnc2c1oc1ccccc12)c1cccs1	/	/	-8	0.5	-12	84	96
25	Cc1cc(C#N)c(C)c(SCc2[nH]nc3c2C(c2ccccc2)C(C#N)=C(N)O3)n1 (centres undefined)	0.94	i	-1	-1.0	-350	71	106
26	CC1CCN(C(=S)c2ccc3c(c2)OCO3)CC1	0.8	i	-10	-3.2	/	/	101
27	O=C(COC(=O)CSc1nnc(-c2ccc(Cl)cc2)o1)NCc1ccc2c(c1)OCO2	1.1	i	-2	0.2	-5	116	98
28	COc1cc(OC)cc(C(=O)NCCSCc2ccco2)c1	0.85	i	-5	-1.4	72	111	97
29	CCOc1ccc2nc(N3CCCN(C(=O)Nc4ccccc4C)CC3)c(C#N)cc2c1	0.97	i	-11	-0.6	/	/	99
30	Cc1ccc(SCCNC(=O)C(CO)(CO)CO)cc1	1.2	i	-15	-1.3	-7	115	101

Single entries from the results shown:
For GALR2 agonist, no. 16 has the entry -1.1
For RGS16-Gao, no. 22 has the entry 104
For HSV replic up primary fold, no. 30 has the entry 1.2

Back to the main list with the two entries that preceded the break.
no.	Molecule	HSV replic up primary fold	HSV replic up	PKD1 inh	GALR2 agonist	INS promoter inh	INS promoter inh cell count	RGS16-Gao
29	CCOc1ccc2nc(N3CCCN(C(=O)Nc4ccccc4C)CC3)c(C#N)cc2c1	0.97	i	-11	-0.6	/	/	99
30	Cc1ccc(SCCNC(=O)C(CO)(CO)CO)cc1	1.2	i	-15	-1.3	-7	115	101
31	CCN(CC)S(=O)(=O)c1ccc(N2CCOCC2)c(NC(=O)CC23CC4CC(CC(Br)(C4)C2)C3)c1	1	i	-15	1.1	22	106	95
32	CN1c2ccccc2C(O)=C(C(=O)Nc2ccccc2)S1(=O)=O	0.95	i	7	-1.5	44	76	105
33	CCn1cc(C(=O)N=c2sc3ccccc3n2C)c(=O)c2ccc(C)nc21	/	/	3	-0.3	11	61	/
34	CNC(=O)/C(C#N)=c1\s/c(=C/C(=O)OC)c(=O)n1-c1ccccc1	0.93	i	2	-1.1	21	211	95
35	CCOC(=O)c1sc(NC(=O)CN2C(=O)NC3(CC(C)CC(C)(C)C3)C2=O)c(C(=O)OCC)c1C (centres undefined)	0.81	i	-5	-0.9	-9	117	102
36	O=C(COC(=O)c1ccc(O)cc1)NCc1ccc2c(c1)OCO2	1.1	i	0	/	/	/	96
37	O=C(C1CCC(C(=O)N2CCCC2)CC1)N1CCCC1 (centres undefined)	/	/	3	-3.9	-25	91	/
38	Cc1cccc(N2CCN(S(=O)(=O)c3ccc4[nH]c(=O)c(=O)[nH]c4c3)CC2C)c1 (centres undefined)	/	/	-4	-0.4	-8	108	95
39	O=C(CN1C(=O)C2CC=CCC2C1=O)Nc1ccc(S(=O)(=O)Nc2ncccn2)cc1 (centres undefined)	1	i	/	/	/	/	98
40	Cc1nc(C)n(CC(=O)c2ccc(Cl)cc2Cl)n1	0.53	i	/	/	/	/	100
41	N/C(=N\OC(=O)c1cc(-c2ccccc2)nc2ccccc12)c1ccccn1	0.93	i	-2	/	/	/	106
42	Cc1ccc(OCC(O)CN2CCN(CC(O)COC(C)C)CC2)c(C(C)(C)C)c1 (centres undefined)	0.8	i	1	-0.7	-200	101	101
43	CCCc1[nH]n(-c2ccc(F)cc2)c(=O)c1C=Nc1ccc(C)cc1	0.95	i	-9	-0.9	-13	171	100
44	Cc1[nH]c2ccc(F)cc2c1CCN(Cc1ccncc1)C(=S)Nc1ccc(F)cc1	0.87	i	0	/	-45	235	105
45	Cc1ccc(C(=O)N/C(=C\c2ccc(-c3ccc(Br)cc3)o2)C(=O)NC2CCS(=O)(=O)C2)cc1 (centres undefined)	0.98	i	8	1.3	/	/	104
46	CCN(Cc1ccccc1)C(=O)COc1cc(=O)n(CC)c2ccccc12	1	i	-3	-2.6	-52	82	111
47	CCC1=Nc2cc(C(=O)NCc3ccco3)ccc2Sc2ccc(Cl)cc21	0.6	i	-8	0.7	-100	9	93
48	O=C(CCC1CCCCC1)NCc1cccs1	1	i	8	-0.4	/	/	112
49	NC(=O)c1cc2ccc(O)cc2oc1=NCc1ccccc1	1.1	i	-3	45*	-15	31	101
50	O=C(O)c1cc(/C=C/c2ccc(N3CCOCC3)cc2)nc2ccccc12	1.1	i	3	/	/	/	98
51	NC(N)=Nc1nc2ccc(Br)cc2c(=O)[nH]1	1	i	2	/	3	163	102
52	OC1(c2cccs2)CN(c2ccc(Br)cc2)C2=[N+]1CCCS2 (centres undefined)	1.1	i	/	/	/	/	103
53	COc1ccc(CCNC(=O)c2cc3ccccn3n2)c(OC)c1OC	0.85	i	-8	-1.4	/	/	108
54	COCCNc1ncnc2c1cnn2-c1ccc(Cl)cc1	0.9	i	4	-1.6	/	/	100
55	CC12CCC(C(=O)NCCCn3ccnc3)(OC1=O)C2(C)C (centres undefined)	0.79	i	-7	-0.2	39	150	100
56	COC(=O)C1CCN(S(C)(=O)=O)CC1	1.1	i	1	-2.5	-20	104	261
57	COc1ccc(C)cc1S(=O)(=O)N1CCC(C(=O)NCCC2=CCCCC2)CC1	0.99	i	7	-3.4	-10	104	99
58	COc1cc(O)c(C(CCN2CCN(c3ccccc3)CC2)c2ccc3c(c2)OCO3)c(OC)c1 (centres undefined)	0.84	i	/	/	/	/	101
59	Cc1cc(C)cc(OCC(=O)N2N=C(c3cccnc3)CC2(O)C(F)(F)F)c1 (centres undefined)	1	i	-8	-1.9	0	111	140
60	O=C(O)c1cccc(N2C(=O)CSC2c2c(F)cccc2Cl)c1 (centres undefined)	0.53	i	-1	0.4	-21	89	105

In the list so far, these contain a CF3 group.
no.	Molecule	HSV replic up primary fold	HSV replic up	PKD1 inh	GALR2 agonist	INS promoter inh	INS promoter inh cell count	RGS16-Gao
15	O=C(NC(Nc1nc2ccc([N+](=O)[O-])cc2s1)(C(F)(F)F)C(F)(F)F)c1ccccc1Cl	0.78	i	-5	-2.5	/	/	91
59	Cc1cc(C)cc(OCC(=O)N2N=C(c3cccnc3)CC2(O)C(F)(F)F)c1 (centres undefined)	1	i	-8	-1.9	0	111	140

With a hit mark in GALR2 agonist, among the entries above:
entry	canonical_smiles	HSV replic up primary fold	HSV replic up	PKD1 inh	GALR2 agonist	RGS16-Gao
49	NC(=O)c1cc2ccc(O)cc2oc1=NCc1ccccc1	1.1	i	-3	45*	101

Other compounds
no.	Molecule	HSV replic up primary fold	HSV replic up	PKD1 inh	GALR2 agonist	INS promoter inh	INS promoter inh cell count	RGS16-Gao
61	O=C(Nc1ccc(Cl)cn1)C1COc2ccccc2O1 (centres undefined)	0.99	i	-1	/	7	139	102
62	CCCC(=O)OCC(=O)Nc1cc(C(C)(C)C)nn1-c1ccccc1	0.97	i	4	-1.3	0	111	118
63	C=CCOc1ccccc1CNCCNC(=O)c1nonc1N	0.84	i	-9	/	/	/	101
64	CC1CC(C)CN(CCCNC(=O)c2cc3c(=O)[nH]c4ccccc4c3n2C)C1 (centres undefined)	0.82	i	6	/	/	/	105
65	Cc1cccc(Nc2nc(N3CCCCC3)nc(N3CCCCC3)n2)c1	0.77	i	-2	0.4	-31	259	105
66	COC(=O)c1ccc(-n2nnnc2SC)cc1	0.92	i	-7	15*	5	124	95
67	Cc1cc(OCC(=O)N(C)C2CCCCC2)cc(C)c1Cl	1	i	-1	/	/	/	102
68	Cn1c(CN2CCCC2)nc2cc(NC(=O)COc3ccc(Cl)cc3)ccc21	1	i	-3	-1.7	11	75	98
69	CCN1C(=O)C(=O)N(CC(=O)Nc2ccccc2Oc2ccccc2)C1=O	/	/	4	/	-7	93	100
70	CC(C)OCCCN1C(=O)c2ccccc2C1C(=O)NC1CCCCC1 (centres undefined)	0.97	i	-14	-1.0	-31	138	99
71	COc1ccc(NC(=O)C(C)SCc2ccccc2)cc1 (centres undefined)	0.86	i	-6	/	/	/	100
72	CCOC(=O)c1c(-c2ccsc2)csc1N	0.95	i	-5	-2.7	/	/	103
73	Cc1ccc2oc(=O)n(CC(=O)O)c2c1	1.1	i	-9	-0.9	/	/	109
74	Cc1nnc(N/N=C/c2ccco2)n1N	0.95	i	-3	/	/	/	105
75	O=C(CCCCCn1c(=O)[nH]c2ccsc2c1=O)N1CCN(C2CCCCC2)CC1	1.1	i	-18	/	/	/	105
76	COc1ccccc1/C=N/NC(=O)c1ccc(Br)cc1	0.98	i	-5	/	-7	80	86
77	COc1ccc(C2(CNC(=O)Cc3ccccc3)CCCC2)cc1OC	0.94	i	-2	-2.4	46	109	91
78	CS(=O)(=O)NCCSCc1c(F)cccc1Cl	0.91	i	-1	-0.6	38	122	106
79	CN(C)C(=S)Nc1ccc2c(c1)OCO2	1	i	-5	/	-29	102	95
80	COc1ccc(C(=O)N/C(=C/c2cccc3ccccc23)C(=O)NCCc2c[nH]c3ccccc23)cc1OC	1	i	-2	-1.3	7	85	111
81	CCSc1nc2nc(C)cc(C)n2n1	1.1	i	-8	-2.4	31	113	97
82	CNS(=O)(=O)c1cccc(C(=O)OCC(=O)Nc2cc(F)ccc2F)c1	0.96	i	-4	/	24	105	102
83	CCOC(=O)c1nnc2cc(C)nn2c1C	0.95	i	/	/	/	/	104
84	CCc1ccccc1NC(=S)N(CCCN1CCOCC1)Cc1cccs1	1	i	5	-0.3	17	86	98
85	CC(C)c1onc(C(=O)N(C)C2CCCCC2)c1[N+](=O)[O-]	1	i	2	/	/	/	95
86	C=CCSc1nnc(-c2ccccc2N=Cc2c(C)[nH]n(-c3ccccc3)c2=O)c(=O)[nH]1	0.87	i	0	-2.1	-17	127	93
87	Fc1ccc(CSc2nsc(SCc3ccc(F)cc3)n2)cc1	0.96	i	-6	1.1	34	110	86
88	Cc1ccc(-n2nnc3c(=O)n(CC(=O)NCC4CCCO4)cnc32)cc1 (centres undefined)	0.77	i	-1	-2.1	/	/	103

From PubChem
